Assay outcomes (PubChem BioAssay)
VDR inhibitor: inhibitors of human vitamin D receptor. P11473. VDR-SRC2-3 peptide fluorescence polarization, 2 h. Potency, µM, inactives show max response, negative = inhibition, hits mostly inhibitors. 400,000 tested, 0.93% active. AID 504847; active = well fitted inhibition curve with a large enough effect; inconclusive = small, poorly fitted or top-dose-only effect, or another doubt; inactive = no such curve, though single readings can be large or run the other way; note: series mostly up to about 120 µM
Target sequence (P11473 whole entry, looked up): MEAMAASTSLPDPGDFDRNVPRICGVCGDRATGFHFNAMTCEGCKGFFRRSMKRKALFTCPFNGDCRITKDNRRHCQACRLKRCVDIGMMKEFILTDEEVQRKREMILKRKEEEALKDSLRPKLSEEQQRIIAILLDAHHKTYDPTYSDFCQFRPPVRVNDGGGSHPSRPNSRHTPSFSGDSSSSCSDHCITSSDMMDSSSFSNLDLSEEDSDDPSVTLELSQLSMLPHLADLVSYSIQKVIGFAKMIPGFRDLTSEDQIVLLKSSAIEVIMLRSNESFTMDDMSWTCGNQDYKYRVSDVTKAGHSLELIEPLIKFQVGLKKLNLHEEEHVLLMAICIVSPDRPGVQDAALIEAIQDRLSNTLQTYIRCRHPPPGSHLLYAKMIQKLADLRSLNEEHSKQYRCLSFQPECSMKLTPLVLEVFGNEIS
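Reagent solutions, kept cold and dark, are dispensed first; compounds are then pinned in at 23 nl, plates briefly spun, and incubated 2 h at ambient temperature. Inhibition of VDR–SRC2-3 peptide binding is read by fluorescence polarization.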
Numbers without * were called inactive; ? = inconclusive; & = joins results of further samples. % is set by controls: 0 for no effect and ±100 for the full control effect; potency is the fitted concentration of half-maximal effect.

SMILES | VDR inhibitor
COC(=O)C1=C(c2ccc(OC(F)(F)F)cc2)C[C@@H]2CC[C@H]1N2C(=O)NCC1CC1 | -6%
Cc1cc(N2C(=O)C3CCCN3C2c2ccccc2)no1 (stereo not given) | -14%
CN(C)C1C(=O)C(C(N)=O)=C(O)[C@@]2(O)C(=O)C3=C(O)c4c(O)ccc(Cl)c4[C@](C)(O)C3CC12 (stereo not given in full) | ?
O=P(N1CCCCC1)(N1CCCCC1)C(Cl)(Cl)Cl | 3%
CC(NCc1ccc(Cl)c(Cl)c1)C(O)c1ccccc1 (stereo not given) | -5%
Cc1[nH]c2ccccc2c1CN1CCCCC1 | -13%
COc1ccc(N=Nc2c(O)[nH]c(=S)[nH]c2=O)cc1 | -8%
CC(C)(O)C1C2OC(=O)C1C1(O)CC3OC34C(=O)OC2C14C (stereo not given) | -11%&8%
COc1ccc(CNc2oc(-c3cccc4ccccc34)nc2P(=O)(OC)OC)cc1 | ?
Cc1ccc(NC(=O)N(Cc2ccc3c(c2)OCO3)C2CCN(Cc3ccccc3)CC2)cc1C | -5%
C=Cn1ccnc1P(=S)(c1nccn1C=C)C1CCCCC1 | 3%
OC(c1ccc(Cl)cc1)(c1cncnc1)c1ccccc1Cl (stereo not given) | ?
Oc1ccccc1-[n+]1c(-c2ccccc2)cc(-c2ccccc2)cc1-c1ccccc1 | 15%
CCNc1nc2[nH]c(=O)c3c(c2s1)OC(N)=C(C#N)C3c1cccs1 (stereo not given) | 9%
COC(=O)C1=C(c2ccc(F)cc2OCc2ccccc2)C[C@@H]2CC[C@H]1N2C(=O)NCc1ccc(C(C)(C)C)cc1 | -5%
N#CC12CNCC1CN=N2 (stereo not given) | -6%
CC1=C(O)C(=O)[C@H]2O[C@@H]2C1=O | ?
Cc1ccc(OCC(=O)N2CCN(C)CC2)c(Br)c1 | 6%
Cc1[nH]c2ccccc2c1/C=N/O | 7%
Cc1noc(C)c1C(=O)N1CCC2(CC1)OCCO2 | 3%

A draw from above in order of formula weight, highest first.
SMILES | VDR inhibitor
CN(C)C1C(=O)C(C(N)=O)=C(O)[C@@]2(O)C(=O)C3=C(O)c4c(O)ccc(Cl)c4[C@](C)(O)C3CC12 (stereo not given in full) | ?
Cc1ccc(NC(=O)N(Cc2ccc3c(c2)OCO3)C2CCN(Cc3ccccc3)CC2)cc1C | -5%
Cc1ccc(OCC(=O)N2CCN(C)CC2)c(Br)c1 | 6%

The main list resumes, starting 3 compounds before the break.
SMILES | VDR inhibitor
Cc1ccc(OCC(=O)N2CCN(C)CC2)c(Br)c1 | 6%
Cc1[nH]c2ccccc2c1/C=N/O | 7%
Cc1noc(C)c1C(=O)N1CCC2(CC1)OCCO2 | 3%
COc1ccc(-n2c(/C=C/c3ccc(O)cc3)nc3ccccc3c2=O)cc1 | -17%
O=C(N/N=C/c1c(O)n(C2CC2)c(=S)[nH]c1=O)c1ccccc1Cl | -4%
CN(C(=O)Cc1ccc(Cl)c(Cl)c1)C(CN1CCCC1)c1cccc(OCC(=O)O)c1 (stereo not given) | 0%&-18%
Cc1ccc2c(c1)C1CN(C)CCC1N2C(=O)CCCN1C(=O)c2cccc3cccc(c23)C1=O (stereo not given) | -9%
CCC(=NCc1ccco1)c1c(O)n(C)c(=O)n(C)c1=O | 7%
Cc1[nH]c2ccccc2c1C1=CCNCC1 | 5%
CCCCCCCCCCCCC/C=C/[C@@H](O)[C@@H](N)COP(=O)([O-])OCC[N+](C)(C)C | 3%
Cc1ccc(-n2c(/C=C/c3cc(Br)cs3)nc3ccccc3c2=O)cc1 | 0%
C[N+]12CCC(CC1)C(=C(c1ccccc1)c1ccccc1)C2 | -1%
Cc1ccc(S(=O)(=O)NCC2CCC(C(=O)N3CCC4(CC3)OCCO4)CC2)cc1 (stereo not given) | -1%
CC(=O)c1c(C)n(CC2CCCO2)c2ccc(O)cc12 (stereo not given) | -3%
Cc1ccccc1CN1C(=O)C(C)N=C(c2ccccc2)c2ccccc21 (stereo not given) | 1%
CCC(=O)c1ccc(OC(=O)N(C)c2ccccc2)cc1 | 6%
Cc1nc2nc(C)c(CCC(=O)N3CCC4(CC3)OCCO4)c(C)n2n1 | -5%
O=C(COc1cc(Cl)ccc1Cl)Nc1ccc(Cl)cc1C(=O)c1ccccc1 | -2%
Cc1cccn2c(=O)c3cc(C(=O)N4CCC5(CC4)OCCO5)n(C)c3nc12 | -11%
COc1ccccc1NC(=O)c1cn(CCC#N)nc1-c1ccc(F)cc1 | 4%
COC(=O)C1=C(c2cccc(C#N)c2)C[C@@H]2CC[C@H]1N2C(=O)N1CCC(O)CC1 | 7%
CN(Cc1ccccc1)Cc1ccccc1OC(=O)N(C)C | 3%
CCCCCCCCCC[N+](C)(C)CCCCCCCCCC | -13%

Molecules shown so far that have bromine:
SMILES | VDR inhibitor
Cc1ccc(OCC(=O)N2CCN(C)CC2)c(Br)c1 | 6%
Cc1ccc(-n2c(/C=C/c3cc(Br)cs3)nc3ccccc3c2=O)cc1 | 0%

Additional entries follow.
SMILES | VDR inhibitor
CCC1(CC)C(=N)N(C)C(=O)NC1=O | 8%
O=C(NC(=S)N1C[C@H]2C[C@H](C1)c1cccc(=O)n1C2)c1ccc(Cl)cc1 | -2%
COc1ccc(C2C(C(=O)N3CCC4(CC3)OCCO4)c3cc(OC)c(OC)cc3C(=O)N2C)cc1 (stereo not given) | 0%
O=C(C(=O)N1CCOCC1)c1cn(Cc2ccccc2F)c2ccccc12 | -3%
COC(=O)C1=C(c2ccccc2)C[C@@H]2CC[C@H]1N2C(=O)NCCCOC(C)C | -6%
Oc1cccc[c]1[Hg][Cl] | 5µM*
CCOC(=O)c1ccc(N2C(=O)CC(N3CC=C(c4ccc(F)cc4)CC3)C2=O)cc1 (stereo not given) | -2%
CCOP(=O)(OCC)Oc1ccc2ccc(=O)oc2c1 | -3%
CC(=O)N1CCN(CCN=Cc2c(O)n(-c3ccc(F)cc3)c(=S)[nH]c2=O)CC1 | 2%
CN1C(=O)C(=Cc2ccccc2Oc2ccc(Cl)cc2)C(=O)N(C)C1=O | 28µM*
COc1ccc(OC)c(N2Cc3ccccc3C2=N)c1 | -10%
O=C(c1csnn1)N1CCC2(CC1)CN(Cc1ccncc1)C2 | 2%
Cc1cc(=O)[nH]c(CCl)n1 | -3%
CC(C)[C@@]1(NC(=O)[C@H]2CC3c4cccc5[nH]cc(c45)C[C@H]3N(C)C2)O[C@@]2(O)C3CCCN3C(=O)[C@@H](Cc3ccccc3)N2C1=O (stereo not given in full) | -1%&-13%
COc1ccc(C(=O)C(C)(C)NO)cc1 | -11%
CN1CCN(c2ccc([N+](=O)[O-])c(Sc3ccccn3)c2)CC1 | -5%
O=C1NC(=S)NC(=O)C12C(c1ccc(F)cc1)NC(=S)NC2c1ccc(F)cc1 (stereo not given) | ?
C=C1C(=O)O[C@@H]2C[C@@H](C)[C@H]3C=CC(=O)[C@]3(O)C[C@@H]12 | -27%
O=C1CCN(C(=O)Cc2ccccc2[N+](=O)[O-])CC1 | 3%
COc1ccc(CCN)cc1 | ?
C(CCc1nn[nH]n1)CCc1nn[nH]n1 | -7%
COc1ccc(/C=C2/C(=O)NC(=S)N(C3CC3)C2=O)cc1CN1C(=O)c2ccccc2C1=O | 45µM*
COCCNC(=O)Cn1cc(C(=O)c2ccccc2F)c2ccccc21 | ?
C=C(C)[C@H]1CN[C@H](C(=O)O)[C@H]1CC(=O)O | -1%&-6%&-1%&-14%&-15%
Cc1oc(-c2ccccc2)nc1CN1C(=O)CN=C(c2ccccc2)c2ccccc21 | -7%
CCC(C)N1C(=O)NC(=O)C2(Cc3c(ccc4ccccc34)N(C)C2)C1=O (stereo not given) | -5%
c1csc(CN2CCNCC2)c1 | -11%
COc1cc(CN2CCN(c3cc(C)ccc3C)CC2)ccc1O | -18%
Cn1c(O)c(C=NC2CCCCC2)c(=O)[nH]c1=S | 10%
COC1(CS(=O)c2ccccc2)CCN(CCc2c[nH]c3ccc(F)cc23)CC1 (stereo not given) | 5%
Cc1nn(CC(C)C)c(Cl)c1C(=O)NC1CCC(C)CC1 (stereo not given) | -18%
CCOP(=O)(OCC)C(NC(=O)C(C)C)C(Cl)(Cl)Cl (stereo not given) | 2%
O=c1c2ccccc2nc(/C=C/c2cccc3ccccc23)n1-c1ccccc1Cl | 10%
CCOP1(=S)Oc2cc3c(cc2C(C(=O)OC)(C(F)(F)F)O1)OCO3 (stereo not given) | 79µM*
O=C1NC(=O)N(CCc2ccc(F)cc2)C(=O)/C1=C\C=C\c1ccccc1 | ?
C[C@]1(O)CCC2C3CC[C@@H]4CC(=O)CC[C@]4(C)C3CC[C@@]21C (stereo not given in full) | -15%
CC(=O)NC1C(OC(=O)Cc2ccccc2)OC(COC(C)=O)C(OC(C)=O)C1OC(C)=O (stereo not given) | 0%
Cc1cc(/C=C2\C(=O)NC(=O)N(Cc3ccccc3Cl)C2=O)c(C)n1-c1ccc(C(=O)O)cc1 | ?
Cc1ccc(-c2cc(-c3ccc(C)cc3)[n+](C)o2)cc1 | -9%
CCN(CC)C(=O)N[C@@H]1C[C@@H]2c3cccc4[nH]cc(c34)C[C@H]2N(C)C1 | -12%

Reprinted at random: 2 records from the list, in no set order.
SMILES | VDR inhibitor
O=C1CCN(C(=O)Cc2ccccc2[N+](=O)[O-])CC1 | 3%
CN(Cc1ccccc1)Cc1ccccc1OC(=O)N(C)C | 3%

More compounds follow.
SMILES | VDR inhibitor
Cc1ccc(N2C(=O)NC(=O)/C(=C\c3ccoc3)C2=O)cc1 | -9%
COc1cc2c(cc1OC)C(C)NCC2 (stereo not given) | -21%
NC1=C([N+](=O)[O-])C(c2ccc3c(c2)OCO3)c2c(c3ccccc3oc2=O)O1 (stereo not given) | -5%
O=C1NC(=O)C(C(CC(=O)c2ccccc2)c2ccccc2)C(=O)N1 (stereo not given) | 5%
ClCCN(CCCl)c1ccc(C2=NCCc3ccccc32)cc1 | ?
COC(=O)C1=C(c2ccccc2)C[C@@H]2CC[C@H]1N2C(=O)NCc1ccc(F)cc1 | -9%
O=c1ccc2c(O)c3ccoc3cc2o1 | -14%&-5%
CNC(C)Cc1ccccc1Sc1ccc(O)cc1 (stereo not given) | -2%
CCOC(=O)C1CCCN(c2ccc([N+](=O)[O-])c3nonc23)C1 (stereo not given) | -10%
CN1CCN(c2nc(Cl)ncc2F)CC1 | -9%
CN1C2CCC1CC(OC(c1ccccc1)c1ccc(Cl)cc1)C2 (stereo not given) | ?
CN1C2CCC1CC(OC(=O)CCN1CCCC1)C2 (stereo not given) | -6%
Nc1nc2ccc(Cl)cc2c2nc(-c3ccco3)nn12 | ?
CNS(=O)(=O)c1ccc(N=Cc2c(O)n(-c3ccc(C)cc3)c(=O)[nH]c2=O)cc1 | 25%
CNC(=O)Oc1ccc2ncccc2c1 | -7%
C/C(=N\NC(=O)c1ccccc1)c1c(O)n(Cc2ccccc2)c(=O)[nH]c1=O | -13%
O=[N+]([O-])c1ccc(NCc2ccccc2)c2nonc12 | -7%
N#CC(C#N)=Cc1ccc(N2CCCC2)cc1 | -18%
O=C(CCN1CCOCC1)Nc1ccc(Br)cc1C(=O)c1ccccc1 | 7%
CCCCOC(=O)C1=C(N)OC2=C(C(=O)CC(C)(C)C2)[C@]12C(=O)N(C)c1ccccc12 | 1%
CN(C)C(=O)Oc1cc(=O)n2c3c(cccc13)CCC2 | 3%
N#CC(C#N)=Cc1cc(O)c(O)c(O)c1 | 22µM*
Cc1ccc(OCC(=O)N2CCN(Cc3ccc([N+](=O)[O-])cc3)CC2)cc1 | -18%
COc1ccc(N=Cc2c(O)n(Cc3cccs3)c(=O)[nH]c2=O)cc1 | 3%
CC(C)C[C@H]1C(=O)N2CCCC2[C@]2(O)O[C@](NC(=O)[C@@H]3C=C4c5cccc6[nH]c(Br)c(c56)C[C@H]4N(C)C3)(C(C)C)C(=O)N12 (stereo not given in full) | 18µM*
CCN1C[C@@]2(COC)C3[C@@H](OC)[C@H]4[C@@H]1[C@@]3(C1C[C@@]3(O)[C@H](OC(=O)c5ccccc5)C1[C@]4(OC(C)=O)[C@@H](O)[C@H]3OC)[C@@H](OC)C[C@H]2O (stereo not given in full) | -2%
O=C(O)CCC(CP(=O)(O)O)C(=O)O (stereo not given) | 22%
Cc1ccccc1-n1c(/C=C/c2c(C)[nH]c3ccccc23)nc2ccccc2c1=O | -4%
C[C@]12CC[C@H]3[C@@H](CC[C@]4(O)C[C@@H](O)CC[C@]34C=O)[C@@]1(O)CC[C@@H]2C1=CC(=O)OC1 | -4%
O=C1NC(=O)C(=O)C(=O)N1 | 3.2µM*
CC[N+](CC)(CC)CC | -1%&3%&-9%
Cc1ccc(-n2nc(C)cc2NC(=O)COc2cc(C)cc3oc(=O)c4c(c23)CCC4)cc1 | 9%
Cn1c(O)c(C=NC2C(=O)C3(C)CCC2C3(C)C)c(=O)n(C)c1=O (stereo not given) | -14%
C[N+]1(C)C2CCC1CC(OC(=O)c1ccco1)C2 (stereo not given) | 12%
C[C@]12CC[C@@H](O)CC1=CCC1C2CC[C@@]2(C)C1C[C@@H](F)[C@@H]2O (stereo not given in full) | -7%
Cc1ccc(S(=O)(=O)N2CC2(C)CCl)cc1 (stereo not given) | -19%
CCCN1CCC(NC2CCC(O)CC2)CC1 (stereo not given) | -13%
CN(C)C(=O)Oc1ccc(OC(=O)c2ccccc2)cc1 | -12%
CC(=O)NCCc1c[nH]c2ccccc12 | 0%&-12%
CCCCn1c(O)c(C(CC)=Nc2cccc(C(=O)O)c2)c(=O)[nH]c1=O | -7%
Cc1nc(SCc2c(Cl)cccc2Cl)nc(OC(=O)N(C)C)c1C | 0%
O=C(COC(=O)Cc1ccccc1)Nc1ccc(Cl)cn1 | -18%

Not all compounds are listed; the hit share may differ from the screen's.
